Screening data as filed in PubChem BioAssay.
D2 potentiator: Beta-Arrestin HTS for Positive Allosteric Modulators of the Human D2 Dopamine Receptor: Potentiators | D(2) dopamine receptor (Homo sapiens), P14416 | DiscoveRx D2 beta-arrestin cells, luminescence, 90 min; 100% = 57 uM dopamine signal | potentiation, % (test concentration not listed) | 360,000 compounds, 0.23% hits | AID 624464, 2012; active = potentiation of 50% or more; inconclusive = 30% to 50%; inactive = 30% or less;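 also: compound concentration not given in the record; tested on top of an EC20 dose of dopamine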
Target sequence (P14416 whole entry, looked up): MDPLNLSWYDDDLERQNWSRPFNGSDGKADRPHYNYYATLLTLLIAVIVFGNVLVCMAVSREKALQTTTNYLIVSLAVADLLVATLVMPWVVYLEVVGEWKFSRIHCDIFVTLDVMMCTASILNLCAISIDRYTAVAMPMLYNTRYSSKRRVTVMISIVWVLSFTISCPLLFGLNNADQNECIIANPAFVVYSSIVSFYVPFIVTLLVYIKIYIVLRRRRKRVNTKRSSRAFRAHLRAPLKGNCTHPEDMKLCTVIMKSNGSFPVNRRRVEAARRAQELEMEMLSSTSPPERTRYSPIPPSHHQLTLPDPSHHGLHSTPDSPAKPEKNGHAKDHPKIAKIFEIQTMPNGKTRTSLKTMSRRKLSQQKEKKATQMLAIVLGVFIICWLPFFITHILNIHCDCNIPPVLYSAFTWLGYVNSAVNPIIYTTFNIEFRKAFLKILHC
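PathHunter D2 cells, attached overnight at 37 deg C, received compound in DMSO plus dopamine at EC20 (50 nM final) for 90 min at 37 deg C. Beta-arrestin recruitment was read as luminescence after 1 h with detection reagent at ambient temperature.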
D2 agonist: Beta-Arrestin HTS for Positive Allosteric Modulators of the Human D2 Dopamine Receptor: Agonists. D(2) dopamine receptor (Homo sapiens), P14416. AID 624465, 2012. DiscoveRx PathHunter D2 beta-arrestin, luminescence, 90 min; 100% = 57 uM dopamine signal. 360,000 compounds, 0.084% hits. activation, % (concentration not given with the values); in the data active = activation above about 40%; inconclusive = about 15% to 40%; inactive = below about 15%; also: the text of the record calls up to 30% inactive
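Agonist mode: compounds alone added to overnight-plated D2 PathHunter cells for 90 min at 37 C, with 57 uM final dopamine (EC100) defining full response. Beta-arrestin recruitment detected by chemiluminescent reagent, read after 1 h at ambient temperature.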
CtBP-E1A blk: qHTS Assay for Inhibitors of the CtBP/E1A Interaction; 340,000 compounds, 0.49% hits; AID 651724, 2012; AlphaScreen GST-E1A/His-CtBP binding, 1536-well; active compounds read low; control for the full effect not named in the record; activity change, % (test concentration not listed); in the data active means activity change below about -65%; inconclusive means about -30% to -65%; inactive means above about -30%; also: % is scaled to controls: 0 for no effect and ±100 for the full control effect
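Homogeneous bead-based format: GST-tagged E1A captured on glutathione donor beads, His-tagged CtBP on nickel acceptor beads; compounds precede bead addition by 2 h at 37 °C.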
TRPML1 agonist: qHTS for Agonists of the Human Mucolipin Transient Receptor Potential 1 (TRPML1); Mucolipin-1 (Homo sapiens), Q9GZU1; TRPML1-expressing cells, Ca2+ dye fluorescence, FDSS; host cell line not named in the record; reference of the full effect not given here; activation, % (no concentration beside the values); 410,000 compounds, 0.12% hits; AID 624414, 2012; in the data active = activation above about 50%; inconclusive = about 30% to 50%; inactive = below about 30%; also: 0% is about no effect; the text of the record puts the active cut at 80%
Target sequence (Q9GZU1 whole entry, looked up): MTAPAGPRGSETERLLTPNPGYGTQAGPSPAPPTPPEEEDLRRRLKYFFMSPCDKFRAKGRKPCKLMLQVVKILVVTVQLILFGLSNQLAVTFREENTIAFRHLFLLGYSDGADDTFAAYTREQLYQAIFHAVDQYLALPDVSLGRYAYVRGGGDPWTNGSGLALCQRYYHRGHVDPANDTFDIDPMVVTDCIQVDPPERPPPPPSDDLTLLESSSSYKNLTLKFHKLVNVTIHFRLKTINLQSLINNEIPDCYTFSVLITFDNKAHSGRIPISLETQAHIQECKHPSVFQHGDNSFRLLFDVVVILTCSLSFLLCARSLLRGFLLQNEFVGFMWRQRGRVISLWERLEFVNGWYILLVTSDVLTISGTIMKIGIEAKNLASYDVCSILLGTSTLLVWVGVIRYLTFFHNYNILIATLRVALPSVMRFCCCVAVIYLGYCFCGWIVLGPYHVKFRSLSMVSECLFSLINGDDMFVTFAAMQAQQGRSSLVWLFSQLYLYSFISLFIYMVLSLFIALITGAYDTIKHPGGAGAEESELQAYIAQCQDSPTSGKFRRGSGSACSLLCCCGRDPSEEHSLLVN
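Kinetic FDSS Ca2+ read in Tet-induced TRPML1-DL cells (ABD Ca8 dye plus quencher, 45-90 min RT loading): baseline, then compound, then 110 s agonist window; EC80 agonist 54-4 at 4uM final added afterwards for a 110 s antagonist window.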
PINK1 modulator: A Quantitative High throughput Screen to Identify Chemical Modulators of PINK1 Expression; 410,000 compounds, 0.2% hits; PINK1 immunofluorescence, high-content cytometry, 24 h; Potency, µM (titrated, usually from 76.6 µM), without a hit: at the highest dose activation (PINK1 increase), hits mostly activators; active = well fitted activation curve with a large enough effect; inconclusive = small, poorly fitted or top-dose-only effect; inactive = flat fitted curve, though single readings scatter; cell line not stated here;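 also: potency is read from the fitted curve at half-maximal effect; % of control where 0% means no effect; nearly all actives have a fitted effect of over 65% in size; a mitochondrial uncoupler was the plate control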
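A stable cell line was treated with compounds at 5 concentrations for 24 hours, with CCCP as control. PINK1 levels and mitochondrial localization were measured by immunofluorescence with mitochondrial, cell and nuclear markers after fixation, read by laser-scanning cytometry.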
Six1-Eya2 blk: qHTS Assay for Inhibitors of the Six1/Eya2 Interaction | AlphaScreen GST-Six1/His-Eya2 binding, biochemical; active compounds read low; control for the full effect not named in the record | activity change, % (no concentration beside the values) | 360,000 compounds, 0.56% hits; in the data active = activity change below about -65%; inconclusive = about -30% to -65%; inactive = above about -30%; also: % is scaled to controls: 0 for no effect and ±100 for the full control effect
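AlphaScreen with GST-Six1 and His-Eya2 (5X mix: 250 nM and 500 nM), glutathione donor and nickel acceptor beads; buffer 50 mM Tris pH 8.0, 300 mM NaCl, 1 mM TCEP; 1 h at 37 C in the dark.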
The depositor's hits bear a star; ? = inconclusive; . = no result given; & = joins results of further samples; [ ] = another dose, or the depositor's remark.

The opening 2 records as a preview:
SMILES | D2 potentiator | D2 agonist | CtBP-E1A blk | TRPML1 agonist | PINK1 modulator | Six1-Eya2 blk
NC(=O)c1ccsc1NC(=O)COC(=O)c1ccccn1 | -2 | -2.7 | ? | 0.1 | 0.3% | ?
COC(=O)C(C)N(C#N)c1nc(C)cc(C)n1 (configuration not stated) | -3 | -3.6 | 9 | 0.0 | -0.2% | 2

Main list (from the top)
SMILES | D2 potentiator | D2 agonist | CtBP-E1A blk | TRPML1 agonist | PINK1 modulator | Six1-Eya2 blk
NC(=O)c1ccsc1NC(=O)COC(=O)c1ccccn1 | -2 | -2.7 | ? | 0.1 | 0.3% | ?
COC(=O)C(C)N(C#N)c1nc(C)cc(C)n1 (configuration not stated) | -3 | -3.6 | 9 | 0.0 | -0.2% | 2
CC(=O)NC(CCS(C)(=O)=O)C(=O)Nc1ccc(Oc2ccccc2)cc1 (configuration not stated) | -1 | -4.3 | -16 | 0.2 | -0.4% | 0
Cn1c(=O)c2cc(NC(=O)NCc3ccc(F)cc3)ccc2n1Cc1cccc(C(F)(F)F)c1 | 2 | 9.1 | 0 | 1.2 | 2.8% | 0
O=C(CN1C(=O)CSC1=O)Nc1ccc(C(=O)O)cc1 | -24 | -0.4 | 13 | -0.3 | -1.1% | 5
COc1ccc(Cl)cc1NC(=O)c1cc(-c2ccccc2)on1 | 12 | -2.1 | . | . | 3.4% | 5
Cc1cccc(NC(=O)CCC(=O)N/N=C/c2ccc(O)cc2O)c1 | -20 | -6.2 | -84* | 1.5 | 1.7% | ?
COc1cc2c(cc1OC)CN(C(=O)C(C)(C)C)CC2 | 9 | 3.8 | 9 | 1.5 | . | 3
CC(C)C[C@@H](CNCC(=O)[C@H](CC(C)C)NC(=O)c1[nH]cnc1C(=O)N[C@H](CN)CC(C)C)NC(=O)c1nc[nH]c1C(=O)N[C@@H](Cc1ccccc1)C(=O)O | -2 | -3.3 | -5 | -0.7 | -0.3% | -6
COC(=O)c1ccc2c(c1)NC(=O)C1CCCN21 (configuration not stated) | -2 | -3.3 | -9 | 0.0 | 8.4% | -22
COc1cc(/C=C/C(=O)OCC(=O)Nc2oc(C)c3c(C)n[nH]c(=O)c23)ccc1OC(F)F | -9 | -3.3 | 0 | 0.6 | 1.8% | 23
Cn1ccc(C(=O)OCC(=O)Nc2ccccc2Cl)n1 | 0 | -4.1 | 0 | -0.1 | 1.1% | -10
CCOC(=O)c1c(C)nc2ccccn12 | 2 | 0.6 | 6 | 0.1 | -2.6%[38.3 µM] | -2
Cc1cccc2sc(NC(=O)CN(C)S(=O)(=O)c3ccc(Br)s3)nc12 | -4 | 2.8 | -9 | 1.0 | ? | 1
CC(=O)c1ccc(NC(=O)Nc2sc(NS(=O)(=O)c3ccccc3)nc2C)cc1 | 27 | ? | -15 | 0.0 | -0.2% | -5
CC(=O)Nc1nc(SCCCc2ccccc2)n[nH]1 | 1 | 0.0 | -4 | 0.0 | -1.0% | 2
CC1CN(C(=O)CCCN2C(=O)c3ccccc3C2=O)CC(C)O1 (configuration not stated) | 0 | -1.2 | . | -1.0 | 0.9% | 1
COC(=O)c1sc(S(=O)(=O)NCCC(=O)O)c(C(=O)OC)c1C | 0 | -1.0 | 7 | -0.6 | 0.5% | -2
Cc1c(C(C)C[C@H](C)O)oc(=O)c2c1Oc1c(C)c(C(C)C[C@H](C)O)oc(=O)c1C2 (some centres not stated) | -10 | -0.7 | 1 | -0.5 | 5.1% | -5
CCS(=O)(=O)CCSC1OC(COC(C)=O)C(OC(C)=O)C(OC(C)=O)C1OC(C)=O (configuration not stated) | -3 | -2.0 | 5 | 0.0 | 2.8% | 3
CN(CCC#N)C(=O)COC(=O)c1c2c(nc3ccccc13)/C(=C\c1ccco1)CC2 | 1 | 5.5 | -20 | 6.9 | 6.6% | ?
COc1ccc2c(c1)C(=NNc1ccc(C(=O)O)cc1)c1cc(OC)ccc1-2 | -11 | -0.2 | . | 0.9 | 1.7% | -5
Cc1ccc(S(=O)(=O)N2CCN(C(=O)COC(=O)c3ccc([N+](=O)[O-])o3)CC2)c(C)c1 | 6 | 2.2 | -5 | -0.6 | 0.9% | 2
COc1ccc(C(=O)Nc2ccc(S(=O)(=O)Nc3cnc4ccccc4n3)cc2)cc1 | -5 | 0.9 | 9 | -1.0 | 1.5% | 2
COc1ccccc1CNC(=O)CCCN1C(=O)NC2(CCCC2)C1=O | -11 | 0.1 | 4 | -0.3 | -1.6% | -3
COc1ccc(Cn2nnc(C(=O)Nc3ccc(F)cc3)c2N)cc1 | 3 | -0.6 | 4 | 1.8 | 0.2% | 5
C=CCNC(=S)N/N=C/c1ccc(-c2ccc(Cl)cc2Cl)o1 | -7 | -12 | 5 | 2.7 | 4.9% | 4
Cc1nn(-c2ccccc2)nc1CNC(=O)C(C)Cc1ccccc1 (configuration not stated) | -5 | -1.1 | 2 | -0.3 | 1.2% | 1
CC(C)n1c(SCC(=O)N2c3ccccc3Sc3ccccc32)nc2c1c(=O)n(C)c(=O)n2C | -15 | 2.2 | 18 | 0.2 | -7.6%[38.3 µM] | 4
NNC(=O)Cc1cccc2ccc(Cl)cc12 | -10 | -4.0 | 2 | -0.8 | 12% | -2
Nc1c(C(=O)Nc2ccccc2F)sc2nc(-c3ccco3)ccc12 | 1 | -1.4 | -27 | -0.4 | 22%[38.3 µM] | -10
COC(=O)C1CCN(C2=C(NS(=O)(=O)c3ccc(Cl)cc3)C(=O)c3ccccc3C2=O)CC1 | -8 | 0.5 | -79* | . | -0.1% | -67*
N#Cc1ccc(Oc2cccc(C(=O)O)c2)cc1C#N | 22 | 0.7 | 1 | -0.4 | -1.3% | -3
O=C(O)CCn1nnc(-c2cccs2)n1 | -11 | -1.4 | 5 | 0.5 | 5.2%[38.3 µM] | 2
CC1(C)CC(CCNC(=O)c2ccc(-n3cnnn3)cc2)CC(C)(C)N1 | -1 | -4.2 | 5 | 3.9 | -2.1% | 0
CCOC(=O)C(=O)Nc1ccc(OC)c(Cl)c1 | -6 | -5.8 | 0 | -0.6 | 0.2% | -4
COC(=O)c1ccc(C(=O)OC)c(NC(=O)CN2CCN(c3ccc(OC)cc3)CC2)c1 | ? | -0.1 | -7 | -0.4 | 5.1% | -9
COc1cc(CNCc2ccc(Br)cc2)cc(OC)c1 | -16 | -2.9 | . | 1.4 | 3.3% | 4
O=[N+]([O-])c1cc(S(=O)(=O)NC2=NCCCCC2)ccc1NCC1CCCCC1 | -12 | -1.7 | -21 | 1.6 | 2.1% | -26
O=C1C2CCCN2C(c2ccc(F)cc2)N1c1nccs1 (configuration not stated) | -12 | -0.3 | 6 | -0.5 | -0.3% | 1

Profiles from above. Order of screens: D2 potentiator	D2 agonist	CtBP-E1A blk	TRPML1 agonist	PINK1 modulator	Six1-Eya2 blk
`Cn1ccc(C(=O)OCC(=O)Nc2ccccc2Cl)n1` in the list: 0	-4.1	0	-0.1	1.1%	-10
`Cc1cccc(NC(=O)CCC(=O)N/N=C/c2ccc(O)cc2O)c1` in the list: -20	-6.2	-84*	1.5	1.7%	?

Next records.
SMILES | D2 potentiator | D2 agonist | CtBP-E1A blk | TRPML1 agonist | PINK1 modulator | Six1-Eya2 blk
CN(C(=O)c1ccc(NC(=O)Cc2ccc(NC(=O)C3CCN(C(=O)CCc4ccccc4)CC3)cc2)cc1)C1CC1 | -3 | -2.2 | 7 | -0.1 | 2.1% | -1
COc1ccc2c(c1)[C@H]1[C@H](CO2)[C@H](c2ccccc2)[C@]2(C)C(=O)Nc3ccc(F)cc3C(=O)N12 | -7 | -1.0 | -13 | 0.4 | 1.3% | -20
COC(=O)c1cc2c(n(-c3ccccc3)c1=O)CCCC2=O | . | -2.8 | 4 | 0.1 | 0.1% | 2
OC(COc1cccc2ccccc12)CN1CCN(c2ccccc2)CC1 (configuration not stated) | 0 | 5.7 | . | -0.4 | 29% | -19
CC(=O)NC(CCS(C)(=O)=O)C(=O)Nc1ccc2c(c1)OCCO2 (configuration not stated) | 6 | -1.5 | -5 | 0.7 | . | -3
Cc1ccc(NC(=O)COC(=O)CCNS(=O)(=O)c2c(Cl)cccc2Cl)cc1 | -6 | 1.0 | -15 | 3.7 | -1.8% | -9
CC(C)Cc1ccc(C(C)C(N)=NCCc2ccccc2)cc1 (configuration not stated) | -8 | -11 | 1 | 1.1 | -1.8% | 5
O=S(=O)(c1ccc(NCCOc2ccccc2)nc1)N1CCCC1 | 0 | 1.6 | 5 | 0.9 | 0.2% | 2
CC(=NC1CC1)c1c(-c2ccccc2)[nH]n(-c2nc3ccccc3s2)c1=O | -9 | 0.4 | 1 | 2.7 | 3.0%[38.3 µM] | -1
O=C(c1c[nH]c2ccccc12)C(Cl)c1ccccc1 (configuration not stated) | 15 | -1.3 | . | 1.8 | -2.4% | -26
CC(C)(C)n1nnnc1C(c1ccc(Cl)cc1)N(Cc1cccnc1)Cc1ccco1 (configuration not stated) | -26 | -6.2 | 9 | 0.7 | ? | 2
Fc1cccc(NCCc2c[nH]c3ccccc23)n1 | -11 | 2.5 | . | -0.4 | 4.0% | -15
O=C(O)c1ccc(CS(=O)(=O)c2cccc(C(F)(F)F)c2)o1 | 8 | 0.2 | 2 | 0.2 | 4.5%[38.3 µM] | 3
NC(=O)NNC1=Nc2cccc3cccc1c23 | -8 | -0.5 | 0 | -1.1 | -0.8% | 1
Cc1nc2cc(-c3ccc(F)cc3)[nH]n2c(=O)c1C | -1 | 7.2 | . | -0.8 | -0.1% | -9
Cc1cccc(/C=N/c2sc3c(c2C(=O)OC(C)(C)C)CCN(C)C3)c1O | -27 | -4.7 | 2 | 0.0 | 6.3% | -20
CNC(=S)N/N=C/c1c(C)nn(-c2ccccc2)c1Cl | -2 | 0.2 | -8 | 1.1 | -4.4%[38.3 µM] | -6
O=C(O)C1C2C=CC(C2)C1C(=O)NCc1cccs1 (configuration not stated) | -8 | -1.4 | 0 | -0.7 | -1.5% | -1
COc1ccccc1N1CCN(C(=O)c2ccc(NS(=O)(=O)c3ccc(C)cc3)cc2)CC1 | -2 | 9.6 | 1 | 1.2 | -2.7% | 2
Cc1ccc(NC(=O)Nc2cccc(F)c2)nc1 | -14 | -0.5 | . | . | 1.6% | -3
COc1ccc2cc3c(N)nn(C(=O)Cc4c[nH]c5ccccc45)c3nc2c1 | -13 | -3.0 | -24 | 1.3 | -1.2% | ?
CC(=O)Nc1nc2c(F)cccc2s1 | 0 | -2.4 | 5 | -0.5 | 0.0% | -2
Cn1nc(C(=O)NCc2cccc(Cl)c2)c2c1-c1ccccc1S(=O)(=O)C2 | -6 | -1.9 | 3 | 1.6&0.3 | 3.9%&0.6% | -3
Cc1nnc(SCc2ccc(Cl)cc2Cl)[nH]c1=O | -4 | -0.5 | 12 | -0.1 | -0.7% | 8
COc1cccc(C=O)c1OCCN1C(=O)c2ccccc2C1=O | 2 | -3.5 | 10 | 0.3 | 13% | 2
